Assay outcomes: PubChem BioAssay, Fisher Drug Discovery Resource Center
NPYLR7 ag = mosquito NPYLR7 agonism | HEK293T NPYLR7/Galpha15, GCaMP6s calcium fluorescence | activation, % at 10 µM | 270,000 tested, 0.15% active | AID 1259423; in the data active = activation above about 40%;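 also: 0% = vehicle and 100% = reference agonist at the receptor; some compounds past the cut are filed as inactive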
NPYLR7 ag max-min = second read-out of NPYLR7 ag, no call of its own (marks repeat the call); activation, %; measured here: Max-Min RFU normalised activation; some inactives read as strong as hits;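 span of the calcium signal over five minutes; 0% = vehicle and 100% = native peptide agonist; compound fluorescence can raise it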
* marks the source's active call; other numbers are inactive results; & = joins results of further samples. These rows are one share of the data (hit frequency here may not be typical).

SMILES	NPYLR7 ag	NPYLR7 ag max-min
Nc1nc(CSc2ncccn2)nc(Nc2ccccc2)n1	13	13
COc1ccc(C)cc1S(=O)(=O)N1CC(c2ccncc2)C1	2	3
CCOC(=O)c1cc(-c2cccc(NC(=O)c3csc4ccccc34)c2)n(-c2cccc(F)c2)n1	8	3
Cc1nc(=S)[nH]c(C)c1CCC(=O)N1CC=C(c2ccc(O)cc2)CC1	0	-2
OCCN(Cc1ccccc1C(F)(F)F)C1CCCC1	3	1
Cc1cn([C@H]2C=C[C@@H](CO)O2)c(=O)[nH]c1=O	-3&-6&-4	-8&-10&-14
Cn1ccc(C(=O)NC2CCN(C3CC3)C2)cc1=O (stereo unspecified)	-2	-3
CCc1ccccc1NC(=O)C(=O)NCCCN1CCOC(c2ccccc2)C1 (stereo unspecified)	-8	-10
COc1cc(C)ccc1Oc1cnn(C)c(=O)c1Nc1cccc(C(=O)O)c1	-5	5
N#Cc1cccc(NC(c2ccccc2)c2ccccc2)c1	-7	-12
Cc1cc(C)n(-c2ccc(F)cc2CNC2CCCN(c3ncccn3)C2)n1 (stereo unspecified)	1	-5
C#CCCC(=O)N1CCC(n2c(-c3ccccc3)nc3ccc(F)cc32)CC1	21	9
OC(Cc1ccccc1)CN(Cc1c(-c2ccccc2F)noc1N1CCOCC1)CC1CCCO1 (stereo unspecified)	5	7
Nc1cc(-c2cccc(Cl)c2)nn1-c1ccc(C(=O)NCc2ccccn2)cc1	-9	-14
Cc1cccc(CO[C@]2(C(=O)NC3CC3)CC(OCc3ccc(F)cc3)[C@H](O)[C@H](O)C2)c1 (stereo partly specified)	23	19
N#Cc1c(N)nc2sc(C(N)=O)c(N)c2c1-c1ccc(Br)cc1	-1	0
CC(C)CN(CC(C)C)C(=O)c1cc2c(=O)n3ccccc3nc2s1	7	3
COC(=O)c1ccc(C(=O)N2CCc3cc(OC)c(OC)cc3C2c2ccccc2Cl)cc1 (stereo unspecified)	-3	7
CN(C)CCNc1cc(C(C)(C)C)nc2c(-c3ccccc3)cnn12	1	1
O=C1CCC(C(=O)N(Cc2ccc(F)cc2)c2nc(-c3ccccc3)cs2)=NN1	8	1
N#Cc1ccc(CN2CCN(CC(=O)N(Cc3ccccc3)C3CCS(=O)(=O)C3)CC2)cc1 (stereo unspecified)	5	13
COCCCN(CC(=O)N(CCc1c[nH]c2ccccc12)Cc1ccccc1)S(=O)(=O)c1ccc([N+](=O)[O-])cc1	16	17
CCCCOc1ccc(C(=O)N2CCCN(c3nc(CCC)nc4c3c(C)nn4-c3ccc(F)cc3)CC2)cc1	-4	-2
O=C(NC(c1nccs1)C1CC1)N1CCCCCC1c1ccco1 (stereo unspecified)	-18	-19
CC1(C(=O)NCCc2nnc3c(C(F)(F)F)cccn23)CCCCC1	4	6
COc1ccccc1NC(=O)N1CCSC1c1cccc(Cl)c1 (stereo unspecified)	-1	2
Clc1ccc(C2CN(Cc3cc4n(n3)CCCNC4)CCO2)cc1Cl (stereo unspecified)	16	12
COc1cccc2c1CCCC(=O)N2	-2	993
CCCOCCNC(=O)c1sc2ccc3ccccc3c2c1Cl	-7	-12
NCCCCCCNS(=O)(=O)c1cccc2c(Cl)cccc12	-13	-15

A section from the list above, as a working copy:
SMILES	NPYLR7 ag	NPYLR7 ag max-min
Cn1ccc(C(=O)NC2CCN(C3CC3)C2)cc1=O (stereo unspecified)	-2	-3
CCc1ccccc1NC(=O)C(=O)NCCCN1CCOC(c2ccccc2)C1 (stereo unspecified)	-8	-10
COc1cc(C)ccc1Oc1cnn(C)c(=O)c1Nc1cccc(C(=O)O)c1	-5	5
N#Cc1cccc(NC(c2ccccc2)c2ccccc2)c1	-7	-12
Cc1cc(C)n(-c2ccc(F)cc2CNC2CCCN(c3ncccn3)C2)n1 (stereo unspecified)	1	-5
C#CCCC(=O)N1CCC(n2c(-c3ccccc3)nc3ccc(F)cc32)CC1	21	9
OC(Cc1ccccc1)CN(Cc1c(-c2ccccc2F)noc1N1CCOCC1)CC1CCCO1 (stereo unspecified)	5	7
Nc1cc(-c2cccc(Cl)c2)nn1-c1ccc(C(=O)NCc2ccccn2)cc1	-9	-14
Cc1cccc(CO[C@]2(C(=O)NC3CC3)CC(OCc3ccc(F)cc3)[C@H](O)[C@H](O)C2)c1 (stereo partly specified)	23	19
N#Cc1c(N)nc2sc(C(N)=O)c(N)c2c1-c1ccc(Br)cc1	-1	0
CC(C)CN(CC(C)C)C(=O)c1cc2c(=O)n3ccccc3nc2s1	7	3
COC(=O)c1ccc(C(=O)N2CCc3cc(OC)c(OC)cc3C2c2ccccc2Cl)cc1 (stereo unspecified)	-3	7
CN(C)CCNc1cc(C(C)(C)C)nc2c(-c3ccccc3)cnn12	1	1
O=C1CCC(C(=O)N(Cc2ccc(F)cc2)c2nc(-c3ccccc3)cs2)=NN1	8	1
N#Cc1ccc(CN2CCN(CC(=O)N(Cc3ccccc3)C3CCS(=O)(=O)C3)CC2)cc1 (stereo unspecified)	5	13
COCCCN(CC(=O)N(CCc1c[nH]c2ccccc12)Cc1ccccc1)S(=O)(=O)c1ccc([N+](=O)[O-])cc1	16	17
CCCCOc1ccc(C(=O)N2CCCN(c3nc(CCC)nc4c3c(C)nn4-c3ccc(F)cc3)CC2)cc1	-4	-2
O=C(NC(c1nccs1)C1CC1)N1CCCCCC1c1ccco1 (stereo unspecified)	-18	-19
CC1(C(=O)NCCc2nnc3c(C(F)(F)F)cccn23)CCCCC1	4	6
COc1ccccc1NC(=O)N1CCSC1c1cccc(Cl)c1 (stereo unspecified)	-1	2
Clc1ccc(C2CN(Cc3cc4n(n3)CCCNC4)CCO2)cc1Cl (stereo unspecified)	16	12
COc1cccc2c1CCCC(=O)N2	-2	993
CCCOCCNC(=O)c1sc2ccc3ccccc3c2c1Cl	-7	-12
NCCCCCCNS(=O)(=O)c1cccc2c(Cl)cccc12	-13	-15

More entries follow.
SMILES	NPYLR7 ag	NPYLR7 ag max-min
Fc1cccc(Cl)c1-c1nccn1Cc1cccnc1	-3	-5
O=C(Nc1ccncc1)C1(c2cccs2)CCOCC1	-11	-2
O=C(NC1CCN2CCCCC12)c1ccc(S(=O)(=O)N2CCOCC2)o1 (stereo unspecified)	11	9
Cc1nc2cc(NC(=O)C3(C)CCCN3CC(C)C)ccc2o1 (stereo unspecified)	-6	-6
CCC(C)N(Cc1nc(C(=O)NCc2cccnc2)co1)Cc1cc(OC)ccc1OC (stereo unspecified)	10	39
COc1ccc(Cl)cc1N1CCN(C(=O)CCc2ccccc2)C(C)C1=O (stereo unspecified)	-6	5
OCCC1CN(Cc2cccc3c2OCO3)CCN1Cc1cccs1 (stereo unspecified)	5	1
Nc1nc(Nc2ccccc2)nc(NCCO)c1[N+](=O)[O-]	-1	-3
Cc1cc(C)cc(NC(=O)N2CCCCC2CCc2nccn2C)c1 (stereo unspecified)	7	5
CN(C)CCCN1C(=O)C(O)=C(C(=O)c2ccco2)C1c1ccc([N+](=O)[O-])cc1 (stereo unspecified)	-4	-6
C=CCn1c(=NC(=O)c2cccc(SC)c2)sc2cc(S(C)(=O)=O)ccc21	6	4
C/C(=N/NC(=O)Cn1cnc([N+](=O)[O-])n1)c1ccc(O)cc1O	-6	-10
O=C1Nc2c(Cl)ccc(Cl)c2C1=O	8	4
Oc1cccc(Nc2nccc3[nH]c(-c4ccc(F)c(F)c4)nc23)c1	10	5
CCOC(=O)c1ccc(N2CC(C)Cn3c2nc2c3c(=O)n(CCOC)c(=O)n2C)cc1 (stereo unspecified)	5	2
CCOc1ccc(-c2cc3c(=O)n(CC(=O)NCc4ccc(OC)cc4)ccn3n2)cc1	3	1
Cc1cccnc1C(NC(=O)C1CCN(Cc2ccc3c(c2)OCO3)CC1)c1ccc(Cl)cc1 (stereo unspecified)	-18	-20
Cc1ccc(C2SCCN2C(=O)Nc2ccc(C)c(Cl)c2)c(C)c1 (stereo unspecified)	26	25
COc1ccc(CN2CCN(Cc3ccc(C#CC(C)(C)O)cc3)CC2CCO)c(C)c1C (stereo unspecified)	1	-1
CCCn1c(=O)n(CC(=O)NC(C)CN2CCCCC2)c2ccccc21 (stereo unspecified)	2	1
O=C(c1ccc(CSc2c(F)c(F)cc(F)c2F)cc1)N1C2CCC1CC(Oc1cccc(C(F)(F)F)c1)C2 (stereo unspecified)	9	-3
O=C(c1ccc(Oc2ccccc2)o1)N1CCC2(CCCO2)CC1	5	4
CCOC(=O)CN1CCN(c2ccc(-c3ccccc3)cc2)C(=O)C1C (stereo unspecified)	2	6
CC(C)N1CCNC(=O)C1CC(=O)NCCn1ccnc1 (stereo unspecified)	18	4
C=CCN(CC(=O)N1N=C(c2ccccc2OC)CC1c1ccccc1)C1CCCC1 (stereo unspecified)	12	11
CN(C)C(C(=O)N1CC(c2cccnc2)C1)c1ccccc1F (stereo unspecified)	17	9
C=CCn1c(SCc2nc(N)nc(N3CCCCC3)n2)nnc1-c1ccco1	1	2
COC(=O)CNC(=O)CCN(Cc1ccc(C)cc1)C1CC1	7	5
COC(=O)c1c(C)[nH]c(-c2csc(N)n2)c1C	1	-2
CCCC(=O)OCC(O)CN(CCOC)Cc1cccc(OC)c1OC (stereo unspecified)	-4	6
Cc1cc(=O)oc2cc(CN3CCN(c4noc(C(C)C)n4)CC3)ccc12	11	-6
Cc1ccc(Oc2ccc(S(=O)(=O)N3CCOCC3)cn2)c([N+](=O)[O-])n1	2	8
O=C(c1nc(=O)[nH]c2ccccc12)N1CCc2c([nH]c3ccccc23)C1C1CCCCC1 (stereo unspecified)	7	4
Cn1nc(-c2cccc(NC(=O)c3cccs3)c2)ccc1=O	0	-2
Cc1nn2c(=O)[nH]c(SCC(=O)Nc3ccc(F)cc3F)nc2c1-c1ccccc1	20	8
Cc1cc(N2C(=O)c3oc4ccc(Cl)cc4c(=O)c3C2c2cccc(F)c2)no1 (stereo unspecified)	7	4
c1ccc(CCCCc2nc(C3CC3)n[nH]2)cc1	1	10
COc1cc2c(cc1-c1[nH]cnc1-c1ccccc1)OCCCO2	0	-1
CNC(=O)[C@@H]1C[C@H](N)CN1C(=O)CCn1cnc2ccccc21	15	10
CC1(Cc2ccccc2)C(=O)Nc2c(Cl)ccc(Cl)c21 (stereo unspecified)	3	2
CCN1CCN(c2nc(Nc3ccc(C)cc3)nc(N)c2[N+](=O)[O-])CC1	3	9
COCOc1ccc(-c2cc(-c3cccc4ccccc34)cnc2N)cc1	-9	-12
COc1ccccc1C=C1Oc2cc(O)ccc2C1=O	17	29
COC(=O)C1C(=N)OC2=C(C(=O)CC(C)(C)C2)C1c1cccs1 (stereo unspecified)	-5	-5
CCc1c(C)nc(-c2cccc(C(F)(F)F)c2)nc1N1CCN(S(=O)(=O)c2ccc(F)cc2)CC1	-4	-1
CCCCCC(=O)NC1=NCCS1	-1	-2
O=C(c1csc(CSc2nnc(-c3ccco3)n2-c2cccc(Cl)c2)n1)N1CCN(c2ccccc2F)CC1	3	2
Cc1cnc(CNC(=O)CSCc2ccccc2Cl)cn1	1	-5
COc1cc(CN2CCN(Cc3ccc(CO)o3)CC2CCO)cc(OC)c1 (stereo unspecified)	-6	-7
CC(=O)N1CCN(c2cc(-c3ccccc3)nc(SCc3cccc(C(=O)NCc4ccccn4)c3)n2)CC1	7	3
Cc1ccn2cc(CNS(=O)(=O)c3ccc4c(c3)OCCO4)nc2c1	2	1
COCCN(Cc1cc(Cl)ccc1OS(=O)(=O)c1ccc(NC(C)=O)cc1)C(=O)c1cccc(F)c1	19	32
Fc1ccc(NC(=S)NN=C2CCCCCC2)cc1	0	0
CC(C)CN1CCC1(C)C(=O)Nc1ccc(OC(F)F)cc1 (stereo unspecified)	5	3
CCSc1nc(CC(=O)NCCc2n[nH]c3c2CCCC3)cs1	1	-2
CCCc1c(C(=O)Nc2ccc(-c3cccc(-c4ccc(OC)cc4)n3)cc2)cnn1-c1ccccc1	12	16
CC(C)c1cc(C(=O)NCCc2nnc3n2CCNCC3)on1	-5	-12
O=C(Cn1c(-c2ccccn2)noc1=O)C12CC3CC(CC(C3)C1)C2	7	5
COc1ccc(-c2c(C)nn3c(N4CCN(CCO)CC4)cc(C)nc23)cc1OC	5	4
CCC(=O)N(c1nnc(SCc2nn3c(=O)cc(C)nc3s2)s1)C1CC1	5	9
Additional structures:
SMILES	NPYLR7 ag	NPYLR7 ag max-min
COc1ccc(CCCNC(=O)c2ccc(N3CCOCC3)nc2)cc1	14	5
CN1CCCC2(CCN(C(=O)CCc3cc(Cl)no3)C2)C1=O (stereo unspecified)	-3	-4
C=CCn1c(N)c(-c2nc3ccccc3[nH]2)sc1=S	-4	-3
COCCCNC(=O)c1cccc(CSc2nc(Cl)cc(N(C)CCc3ccc(OC)c(OC)c3)n2)c1	-6	0
Cc1cc(C)n2c(C3=NC(=Cc4ccccc4)NN3)nnc2n1	21	12
CC1CN(CC(=O)Nc2ccc(S(N)(=O)=O)cc2)CC(C)O1 (stereo unspecified)	-2	-4
CCc1nnc2c(=O)n(-c3cccc(F)c3)ccn12	11	-2
O=C(NCc1ccccn1)c1cnn(-c2ccc([N+](=O)[O-])cc2)c1-c1ccccc1	22	17
c1ccc2cc(OCCCn3c4ccccc4c4nc5ccccc5nc43)ccc2c1	0	1
O=C(CCC1CCN(C(=O)C2=CCCCC2)CC1)N1CCN(c2ccccc2)CC1	16	6
CCN(CC)c1c(C)nc2ccc(C(=O)N3CCN(C(C)=O)CC3)cn12	-1	-4
COc1cccc(-c2nc(OC)nn2-c2ccc(NC(=O)c3ccc(C(F)(F)F)cc3)cc2)c1	4	20
NC(=O)c1ccccc1NC(=O)CNC(=O)C1CC1(c1ccccc1)c1ccccc1 (stereo unspecified)	-2	-4
CC(=O)[C@@H]1CCCC(=O)[C@@H]2CC[C@@H](C)[C@@H]12	-5	-6
Cc1ccc(-c2cc(C(F)(F)F)n3ncc(C(=O)Nc4cc(C)cc(C)c4)c3n2)cc1	0	0
O=C(CCC1CCCN(Cc2ccc3c(c2)OCCO3)C1)N1CCOCC1 (stereo unspecified)	0	-5
CCOC(=O)C1CCCN(c2cn[nH]c(=O)c2Cl)C1 (stereo unspecified)	-9	-17
Cc1nc2ccccn2c(=O)c1NC(=O)C(C)Oc1ccccc1F (stereo unspecified)	-4	-3
